Tgondii IFNg: T. gondii growth inhibition under IFN-gamma; 69,000 compounds, 3.8% hits; AID 1259416; Toxoplasma gondii growth in IFN-gamma-treated host cells; stronger effect = lower value; reference of the scale not given here; activity change, negative = inhibition, %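 (about 20 µM by stock and volumes)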;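 active = below -70%; inconclusive = fit judged invalid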;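 note: host cells are HeLa cells infected with Toxoplasma gondii; parasite growth read as luciferase light; one replicate is shown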
* = called active by the depositor; i = inactive; ? = inconclusive; & = joins results of further samples. A portion of the library, so the mix of outcomes need not match the whole.

SMILES	Tgondii IFNg
Cc1ccc(CC(=O)N2CCCC3(CC(C(=O)NCc4cccnc4)=NO3)C2)cc1 (stereo not drawn)	1.5
O=C(c1ccc(F)cc1)N1CCCn2nnc(Cn3cccn3)c2C1	-1.8
CCOc1ccc(C(=O)N(C)Cc2cccc3cnccc23)o1	10.6
CCOC(=O)c1cc2cc(OCc3ccccc3)ccc2n1C(=O)c1ccccc1C(=O)O	10.1
CN(C)CCN1C[C@@H]2CN(C(=O)c3cnc[nH]3)C[C@H]2C1=O	3.3
Cc1ccsc1-c1nccn1Cc1ccc2c(c1)n(C)c(=O)n2C	16.3
CCN1c2ccccc2C(=O)NC12CCN(C(=O)c1ccc(C)cc1)CC2	-6.0
Cc1ccc(CN2CC[C@@H]3C[C@H](c4nc(C5CC5)cs4)O[C@H]3C2)o1	14.0
CN(Cc1csc(-c2cccs2)n1)Cc1nc(-c2ccc3c(c2)OCO3)no1	21.6
O=C(CSc1nc2ccccc2o1)N1c2ccccc2Sc2ccccc21	93.8
CCC1COC2(CCCN(C(=O)c3cnn4cccnc34)C2)C1 (stereo not drawn)	-0.5
CNC(=O)c1cc(=O)n(CC(=O)Nc2cccc(Br)c2)c2ccccc12	-11.1
O=C(O)c1c(S(=O)(=O)N[C@@H]2C[C@H]2c2ccccc2)sc2c1CCNC2	-0.2
COc1cc(NC(=O)COc2ccccc2)c(OC)cc1NC(C)=O	26.1
Cc1c(Cl)cccc1NC(=O)Cn1c(=O)cc(C(=O)N2CCCCC2)c2ccccc21	7.3
CO[C@H]1CN(C)C(=O)c2cc(NS(=O)(=O)c3ccc(Cl)cc3)ccc2OC[C@H](C)N(C(=O)NC(C)C)C[C@@H]1C	66.2
O=S1(=O)Cc2cnoc2-c2cc(Cl)ccc21	21.4
O=C(C1CC2(CCNCC2)CN1)N1CCc2c(nc(CC3CC3)[nH]c2=O)C1 (stereo not drawn)	-1.3
CCC(NC(=O)c1cnc2scc(C)n2c1=O)c1ccc(OC)cc1 (stereo not drawn)	-11.4
CCCCN(CCCC)C(=O)c1cc2cccnc2n(Cc2ccc(F)cc2)c1=O	62.6

Reprinted from above, 3 compounds:
SMILES	Tgondii IFNg
O=C(C1CC2(CCNCC2)CN1)N1CCc2c(nc(CC3CC3)[nH]c2=O)C1 (stereo not drawn)	-1.3
CCC(NC(=O)c1cnc2scc(C)n2c1=O)c1ccc(OC)cc1 (stereo not drawn)	-11.4
CCCCN(CCCC)C(=O)c1cc2cccnc2n(Cc2ccc(F)cc2)c1=O	62.6

(cont.)
SMILES	Tgondii IFNg
CCOC(=O)c1cnc(SC)nc1Nc1ccccc1	-5.5
CCc1ccccc1S(=O)(=O)N1CCc2nc(-c3ccccc3)sc2C1	-68.1
CC(c1ccncc1)N(C)C(=O)Cc1ccc(O)c(Cl)c1 (stereo not drawn)	-6.9
CC(C)CCN1Cc2ccccc2C2(CCN(C3CCOCC3)CC2)C1	2.0
CN1C(=O)c2cc(NC(=O)Cc3cccs3)ccc2OC[C@H]2O[C@H](CC(=O)NCCc3ccncc3)CC[C@H]21	13.6
CN1CCC2(CN(C(=O)c3ccc4c(c3)OCO4)C2)OCC1C(=O)O (stereo not drawn)	-36.0
CN(c1cncc(C(=O)N2CCN(c3ccccc3)CC2)c1)S(=O)(=O)c1ccccc1	42.6
CN(C)c1nccc(C2CCN(c3ncccn3)CC2)n1	-33.6
COc1cc(-c2coc3cc(OC)c(OC)c(OC)c3c2=O)cc(OC)c1OC	2.3
O=C(O)CCCc1nc(-c2cccnc2)no1	-2.8
CCCC(=O)N1CCC2(CC1)CN(Cc1ccc(Cl)cc1)[C@H](CO)c1[nH]c3cc(OC)ccc3c12	0.3
CN1CCC2(CC1)CCN(C(=O)CCn1nnc3ccccc31)C2	1.9
c1ccc(O[C@H]2CN(c3ncccn3)[C@H]3CCCO[C@@H]23)nc1	-20.5
CC1CCN(c2ncnc3c2cnn3CC(=O)Nc2ccc(C(F)(F)F)cc2)CC1	-66.8
COC(=O)c1cccc(NC(=O)Nc2ccc(-c3nc(-c4ccccc4)co3)cc2)c1	57.3
COc1ccc(CNC(=O)C[C@H]2CC[C@@H](NC(=O)CN(C)C)[C@@H](CO)O2)cc1	26.1
Cc1cc(C2CCC2)nc(N(C)Cc2cnccn2)n1	-3.0
CC(C)CS(=O)(=O)N1CCc2cc(C(=O)N(C)C)c(NC(C)C)nc2CC1	-6.7
CC(=O)N1CCC(C(=O)NCc2ccccc2)(N(C(=O)c2ccc(C)cc2)c2ccc(F)cc2F)CC1	-61.4
COc1cccc(C(NC(=O)Cc2sc(C)nc2C)c2ccccc2)c1 (stereo not drawn)	18.7
CN(Cc1nnc(-c2ccc3ccccc3c2)o1)c1nnc(C(F)(F)F)s1	8.8
Cc1nn(C(C)CC(=O)Nc2ccnn2C(C)C)c(C)c1Cl (stereo not drawn)	-8.8
CCCN1CC(NC2CCN(Cc3cccnc3)CC2)CC1=O (stereo not drawn)	5.3
CC(=O)Oc1ccc2occ(-c3ccccc3)c2c1	44.7
Cc1cc(CN(C)Cc2ccc(OCc3ccc4c(c3)OCO4)cc2)n[nH]1	-17.0
Cc1nnc(SCCCNC(=O)c2c(C)nc3sccn23)s1	-34.5
CN1CCO[C@@H]2CN(C(=O)CC3Cc4ccccc4C3)C[C@@H]2C1	112.0
Cc1ccc2c(c1)c1ncn(Cc3nc(C(C)C)no3)c(=O)c1n2CC(=O)N1CCCC1	-26.3
Cc1ccc(C(=O)NCCc2sc(-c3cccc(F)c3)nc2C)cc1C	15.8
N#CCN1CC2(CCN(C3CCOC3)CC2)c2ccccc21 (stereo not drawn)	10.0
COC(=O)c1c(COc2ccccc2)n[nH]c1C	16.8
O=C(CCCOc1ccc(F)cc1F)Nc1ccc2nc[nH]c(=O)c2c1	42.1
Cc1ccc(S(=O)(=O)NC(=O)NCCSCc2ccccc2Cl)cc1	18.8
O=C1C2C3C=CC(C3)C2C(=O)N1CCN1C(=O)C2C3C=CC(C3)C2C1=O (stereo not drawn)	1.9
CN1CCC2(CC1)CCN(S(=O)(=O)c1c(F)cccc1F)C2	3.5
O=C(Cc1csc(-c2ccccc2)n1)Nc1ccc(N2CCCS2(=O)=O)cc1	2.2
Cc1ncc(C(=O)NCCOc2ccccc2F)c(C)n1	14.8
CNC[C@H]1Oc2ncc(-c3cncnc3)cc2C(=O)N([C@H](C)CO)C[C@@H]1C	468.1
CC(C)c1cc(C(=O)N2CCCC(CO)(CCc3ccccc3)C2)n[nH]1 (stereo not drawn)	-6.7
COc1ccc(-c2nc(CN(c3ccccc3OC)S(=O)(=O)c3ccccc3C)c(C)o2)cc1	-49.5

Molecules shown so far with a thiophene ring, fused or not:
SMILES	Tgondii IFNg
Cc1ccsc1-c1nccn1Cc1ccc2c(c1)n(C)c(=O)n2C	16.3
CN(Cc1csc(-c2cccs2)n1)Cc1nc(-c2ccc3c(c2)OCO3)no1	21.6
O=C(O)c1c(S(=O)(=O)N[C@@H]2C[C@H]2c2ccccc2)sc2c1CCNC2	-0.2
CN1C(=O)c2cc(NC(=O)Cc3cccs3)ccc2OC[C@H]2O[C@H](CC(=O)NCCc3ccncc3)CC[C@H]21	13.6

The results go on.
SMILES	Tgondii IFNg
O=C(C1CCC1)N1CC(=O)N2[C@H](CO)[C@H](c3ccc(Br)cc3)[C@H]2C1	-29.9
Cc1ccc(SCc2ccccc2C(=O)Nc2cc(Cl)ccc2O)cc1	-74.7*
CCC(=O)N1CC2(CCN(C(=O)Nc3ccccc3F)CC2)c2c([nH]c3cc(OC)ccc23)[C@H]1CO	109.6
CNC(=O)CN1CCO[C@H]2CN(C(=O)c3cnccn3)C[C@@H]21	i
C=CC[C@@H]1CC=C[C@@H](C)N1C(=O)CCc1c(C)nn(C)c1C	1.9
CCOC(=O)c1cnc(SC2CCc3ccccc3C2=O)nc1N (stereo not drawn)	153.9
Cc1nc(C(=O)NCCCSc2nnc(C)s2)cs1	55.3
CC1c2ncc(COCc3ccccn3)n2CCN1C(=O)CN(C)C (stereo not drawn)	5.3
CCOC(=O)N1CCC2(CC1)OC(=O)C(C)=C2C(=O)NCc1cccs1	-15.1
OCc1nnc2n1CCN(Cc1cccc(OC3CCCC3)c1)C2	-6.0
CCc1nccc(CN(C)CC2COc3ccccc3O2)n1 (stereo not drawn)	-34.1
CC(C)(C)NCC(O)COc1ccc(-c2csnn2)cc1 (stereo not drawn)	-50.2
CCOc1ccc(CNc2nc(-c3nnc(-c4ccc(F)cc4)o3)nc3ccccc23)cc1	175.9
CNc1cc(-c2cccc(C(C)O)n2)c2cc[nH]c2n1 (stereo not drawn)	50.4
C[C@@H]1CN([C@@H](C)CO)C(=O)c2ccccc2-c2ccccc2CO[C@H]1CN(C)C(=O)NC1CCCCC1	-23.7
CCCCCCNC(=O)n1cc(F)c(=O)[nH]c1=O	-64.8
COC(=O)C1=C(C)NC(C)=C(C(=O)OCCSc2ccccc2)C1C (stereo not drawn)	3.9&3.3
Cc1nn(-c2ccc(F)cc2)c(C)c1C(=O)N1CCC2(CN(C)C(=O)O2)C1 (stereo not drawn)	6.2
CN(C)C(=O)N1C[C@@H]2COC[C@@]2(CN2CCOCC2)C1	-13.7
C[C@@H]1CN([C@H](C)CO)C(=O)CCCn2nncc2CO[C@@H]1CN(C)Cc1cccc2c1OCCCO2	-57.9
CCOc1ccc(-c2nc(CN(c3ccc(OCC)cc3)S(=O)(=O)c3cccs3)c(C)o2)cc1	-51.3
Cc1ccc(-c2noc(-c3c(O)c4cc(F)ccc4n(C)c3=O)n2)cc1C	-66.5
O=C(c1csc(Cc2ccccc2)n1)N1CCCC1c1ccccn1 (stereo not drawn)	6.9
Cc1ccc2c(c1)c(=O)cc(C(F)(F)F)n2CCNC(=O)c1ccccc1F	-22.1
O=C(CCC1CCCC1)Nc1cnn(-c2ncncc2N2CCOCC2)c1	-62.5
C/C=C/c1ccc([C@@H]2[C@H](CO)N(Cc3cncnc3)C23CN(C(=O)COC)C3)cc1	87.7
CCN(CC)C(=O)CCC1(Cc2ccc(F)c(OC)c2)CCC(=O)N1 (stereo not drawn)	-47.4
CC(C)NC(=O)N1C[C@H]2C[C@H](C(=O)Nc3ccc4c(c3)OCO4)[C@@H](C1)O2	-1.1
O=C(Cn1ncc2c(N3CCCCC3)ncnc21)Nc1ccc(Br)cc1F	159.3
CCS(=O)(=O)N1C[C@@H]2COC[C@@]2(COc2cccnc2)C1	10.0
COc1ccc(-c2noc(-c3c(O)c4cc(F)ccc4n(C)c3=O)n2)cc1	15.6
Nc1nc2ccc(CCC(=O)O)cc2s1	8.0
CCn1nc(C)c(NC(=O)Cn2nc(C3CCCNC3)n(CC)c2=O)c1C (stereo not drawn)	4.8
COCCCn1ccnc1-c1cccc(OC)c1OC	7.7
COc1ccc(NC(=O)Cn2c(=O)cc(C(=O)N3CCCC3)c3ccccc32)cc1Cl	9.4
CCOC(=O)NC(=S)NCc1ccco1	50.3
CC(C)NC(=O)[C@@H]1C[C@@H](N)CN1Cc1nc(-c2ccccc2)cs1	3.1
O=C(C[C@H]1CC[C@H]2[C@@H](COC[C@@H](O)CN2Cc2cc(F)ccc2F)O1)NCc1ccc(Oc2ccccc2)cc1	-59.3
CCOCC(=O)N1C[C@H]2CCCC(OCc3cccnc3)[C@@H]2C1 (stereo partly drawn)	5.8
Cc1cccc(C(=O)Nc2cccc(NC(=O)C3CCCCN3C)c2)c1 (stereo not drawn)	-39.8
CCc1ccc(NC(=O)CSc2nnc(-c3ccoc3C)n2Cc2ccco2)cc1	-5.8
Cc1ccoc1C(=O)N1CC[C@H]2[C@@H]1CCN2c1nncs1	-40.8
Cc1nc2ccccn2c1CC(=O)N1C[C@H]2C[C@H](O)[C@H](O)C[C@H]2C1	2.8
C[C@H](CCC(=O)O)[C@H]1CC[C@H]2[C@@H]3[C@H](O)C[C@@H]4C[C@H](O)CC[C@]4(C)[C@H]3C[C@H](O)[C@]12C	13.0
Cc1ccc(-c2cc(Cc3ccc(-c4ccc(OC(F)(F)F)cc4)o3)c(=O)[nH]n2)cc1	-0.2
CC(C)c1onc(-c2c(Cl)cccc2Cl)c1COc1ccc(/C=C/c2cccc(C(=O)O)c2)c(Cl)c1	-6.3
O=C(CN1CCN(CCCc2c[nH]c3ccc(F)cc23)CC1)Nc1ccccc1	?
CC(C)c1nc(Cc2ccc3c(c2)OCO3)n(-c2ccccn2)n1	1.6
O=C(c1cccc(CC2CCNCC2)c1)N1[C@@H]2CC[C@H]1CC(O)C2 (stereo partly drawn)	-49.6
O=C(Nc1ccccc1C(F)(F)F)c1nc(Nc2ccccc2)c2ccccc2n1	-54.1
COCC(=O)Nc1ccc(-c2nc(-c3cc(C)ccc3C)co2)cc1	11.3
O=C(Cc1cccs1)Nc1ccc(-c2nnc(-c3ccco3)o2)cc1	55.9
C[C@H]1CN([C@@H](C)CO)C(=O)Cc2cc(NC(=O)c3ccncc3)ccc2O[C@H]1CN(C)C(=O)Nc1ccc(F)cc1	-7.0
CS(=O)(=O)NCC1CCN(Cc2cnc(N3CCCC3)nc2)C1 (stereo not drawn)	0.5
CO[C@@H](CN(C)C(=O)C1CCOCC1)[C@H](C)CN([C@H](C)CO)S(=O)(=O)c1ccccc1	-46.5
CN(C)c1cc(NCc2cn3c(n2)CN(C(=O)C2CC2)CC3)ncn1	8.7
Cc1c(CN(C)Cc2ncc[nH]2)[nH]c2ccccc12	-2.6
c1ccc(-c2ccc(-c3nccn3CCc3cnccn3)s2)cc1	-45.7
CS(=O)(=O)n1c(C(=O)NCc2ccco2)cc2c1c1ccccc1n2CC1CC1	3.2
CCC(=O)Nc1cccc(C(=O)N2CCC[C@H]2CO)c1	5.2

Assay outcomes (PubChem BioAssay)
